CDC25B CDK2 inh = primary biochemical HTRF screen for blockers of M-phase inducer phosphatase 2 binding to CDK2/cyclin A; z-score (test concentration not listed); 0.72% of 94,000 active; HTRF CDC25B-CDK2/CyclinA binding, anti-His/anti-Flag; active compounds read high; P30305+P24941;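 note: score is relative to mean and SD of negative controls; strong numbers were not always called active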
HIV TAR-Tat = TAR RNA-Tat peptide displacers, HIV-1, primary screen, biochemical, FRET, FAM/TAMRA-labeled Tat. HIV-1 TAR RNA, Tat peptide displacement FRET; active compounds read high. z-score (no concentration beside the values). 0.6% of 100,000 active;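 note: score is relative to mean and SD of negative controls; some compounds called inactive have numbers as strong as hits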
* marks the source's active call; other numbers are inactive results; x = no result given.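 Rule for the calls: active = z-score from 3 up in half or more of its runs; inactive = the rest.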

SMILES | CDC25B CDK2 inh | HIV TAR-Tat
Cc1cc2c(Nc3ccc(C)c(Cl)c3)ncnc2s1 | -6.6 | x
N#Cc1c(Cl)cccc1N1CCCC1 | -1.9 | x
O=C1CC(c2ccsc2)c2c(n[nH]c2-c2ccccc2)N1 (configuration not stated) | 0.7 | 1.1
CNC(=O)c1cnc2sc(N3CCOCC3)nn2c1=O | x | 0.56
CCn1c(CN2CCOCC2)nc2c1c(=O)n(C)c(=O)n2C | -0.92 | -0.34
CCc1nnc2c3ccccc3nc(Nc3ccc4c(c3)oc(=O)n4C)n12 | x | 0.67
COc1ccc(/C=c2\sc3nc4c(C)cc(C)cc4n3c2=O)cc1OC | -3.2 | x
COC(=O)c1ccc(Oc2nc(NC(C)(C)C)nc(N(C)C)n2)cc1 | -1.5 | 0.77
CC(C)c1cc(C(F)(F)F)n(-c2nc(C(=O)O)cs2)n1 | x | 1.3
COc1ccc(NC(=O)c2ccc([N+](=O)[O-])o2)cc1Cl | 0.88 | -0.57
CC1CN(C(=O)c2cc3c(=O)n4ccccc4nc3s2)CC(C)O1 (configuration not stated) | -0.67 | x
CCCc1cc(=O)[nH]c(Nc2ccc(OCC)cc2)n1 | -1.7 | 1.6

Single entries from the entries so far:
In HIV TAR-Tat, COC(=O)c1ccc(Oc2nc(NC(C)(C)C)nc(N(C)C)n2)cc1 has the entry 0.77
In CDC25B CDK2 inh, CC1CN(C(=O)c2cc3c(=O)n4ccccc4nc3s2)CC(C)O1 (configuration not stated) has the entry -0.67
In HIV TAR-Tat, O=C1CC(c2ccsc2)c2c(n[nH]c2-c2ccccc2)N1 (configuration not stated) has the entry 1.1
In HIV TAR-Tat, COc1ccc(NC(=O)c2ccc([N+](=O)[O-])o2)cc1Cl has the entry -0.57

The list continues:
SMILES | CDC25B CDK2 inh | HIV TAR-Tat
CCOC(=O)c1cc(C)nc2c1c(=O)n(Cc1ncc(C)c(OC)c1C)c(=O)n2C | x | 0.85
CCN(CC)CCNC(=O)CCc1nnc2ccc(N3CCCC3)nn12 | x | 0.31
COc1ccc(C2C(C#N)=C(N)Oc3c2c(C)nn3-c2ccccc2)cc1 (configuration not stated) | -0.33 | 3.3
CCOC(=O)N1CCN(c2ncc3c(n2)CC(c2ccc(OC)c(OC)c2)CC3=O)CC1 (configuration not stated) | -0.03 | 1.4
CC(C)CCn1c(CN2CC(C)CC(C)C2)nc2c1c(=O)n(C)c(=O)n2C (configuration not stated) | -1.3 | x
O=C(O)c1cc(S(=O)(=O)N2CCOCC2)ccc1O | -1.9 | 1.3
O=C(CCCn1c2ccccc2c2cn[nH]c(=O)c21)NCCCN1CCCCC1 | 0.76 | -0.59
CC(C)(C)c1ccc(C2NC(=O)NC(O)(C(F)(F)F)C2C(=O)c2cccs2)cc1 (configuration not stated) | -1.5 | x
Cc1[nH]nc(-c2ccc(S(=O)(=O)NCc3ccc(Cl)cc3)s2)c1C | x | -0.08
COc1cccc2c1Oc1nc(-c3cccc(Cl)c3)[nH]c(=O)c1C2 | -2.4 | 0.31
COc1ccc(OC)c(CCNc2ncnc3onc(-c4ccc(Cl)cc4)c23)c1 | x | 1.2
Nc1ccc(C(=O)Oc2ccccc2)c(O)c1 | x | 2
CCOC(=O)N1CCN(C(=O)COc2ccc3c(c2)C(=O)CC2(CCN(C(C)=O)CC2)O3)CC1 | -0.96 | -0.41
Cc1c(NC(=O)Nc2ccccc2)c(=O)n(-c2ccccc2)n1C | 0.11 | 2
Clc1ccc2nc(-c3ccco3)c(Nc3ccc4c(c3)OCCO4)n2c1 | -1.7 | -5.3
Cc1ccc(OCCSc2nnc(-c3ccccc3)o2)cc1 | -0.3 | -0.01
O=C(c1ccc2c(=O)n3c(nc2c1)CCCCC3)N1CCN(c2ccc(F)cc2)CC1 | -2.8 | x
CC1CCCC2(C1)NC(=S)N(c1ccccc1)N2 (configuration not stated) | -1.2 | x
O=S(=O)(c1cccc(Cl)c1)N1CCCC1c1cccs1 (configuration not stated) | -1.8 | -0.16
CCOC(=O)CC(C)Nc1cc(NC(C)=O)ccc1OC (configuration not stated) | -2.2 | x
COCCN1C(=O)c2[nH]nc(-c3ccccc3O)c2C1c1ccc(OCc2ccccc2)c(OC)c1 (configuration not stated) | 0.92 | -1.8
CCn1c(=O)c(C2=NS(=O)(=O)c3ccccc3N2)c(O)c2ccccc21 | x | 1.9
CC1=C(C(N)=O)C(c2ccc(F)cc2)n2nc(-c3ccc(N(C)C)cc3)nc2N1 (configuration not stated) | -2.6 | 0.22
O=C(Nc1cc(F)c(Br)cc1F)c1ccc(Cl)cc1 | -2.1 | x
CCc1nn2c(=O)cc(COc3ccc(C)c(C)c3)nc2s1 | -1.5 | 0.78
Cc1ccc(S(=O)(=O)[C@H]2CS(=O)(=O)C[C@@H]2N2CCN(c3ccc(F)cc3)CC2)cc1 | -1.1 | 1.7
CCS(=O)(=O)c1nc(S(=O)(=O)c2ccc(C)cc2)c(NCCN2CCOCC2)s1 | -0.69 | 2.3
COc1cccc(NC(=O)C2Cc3ccccc3C(=O)O2)c1 (configuration not stated) | -0.21 | x
O=c1c2ccccc2n2c(=O)[nH]nc2n1CCc1ccccc1 | -0.73 | 1.8
CC1CN(c2ccc(NC(=S)NCc3cccs3)cc2)CC(C)O1 (configuration not stated) | -2.9 | x
Cc1nc(N2CCc3ccccc3C2)nc2oc(-c3ccccc3)nc12 | x | -0.49
O=C(Nc1ccc(F)cc1)c1nc(-n2cnnc2)ccc1Br | x | 2.9
Cc1cc(C)cc(OCc2cc(=O)n3c(-c4ccccc4)csc3n2)c1 | -2 | -1.7
O=C(NCCCCN1CCOCC1)c1cc2ccccc2o1 | x | -0.39
COc1cc(NS(=O)(=O)c2ccc3c(c2)N(C)CCO3)cc(OC)c1 | x | 0.49
Cc1ccc(NS(=O)(=O)c2cn(C)c(C)n2)cc1 | x | 1.2
CSc1ncc(Cl)c(C(=O)N(Cc2ccc(N(C)C)cc2)C2CCS(=O)(=O)C2)n1 (configuration not stated) | -0.62 | 1.6
CC(C)c1cc(C2CCCN2Cc2cc(Cl)ccc2O)no1 (configuration not stated) | x | 2.4
COC(=O)c1ncn2c1C(=O)N(Cc1cccs1)C(C)(C(=O)NC1CCCCC1)C2 (configuration not stated) | x | 1.5
Cc1cc(C)c(C#N)c(Nc2ccc(F)cc2)n1 | 0.05 | -1.2
O=C(O)CNC(=O)c1ccc(NC(=O)c2c(F)cccc2F)cc1 | -1.8 | x
O=c1c2c3c(sc2nnn1Cc1ccccc1)CCCC3 | -0.23 | 0.78
Cc1[nH]c2ccccc2c1C(c1cccs1)N1CCN(C)CC1 (configuration not stated) | -1.1 | x
CCOC(=O)C1=C(C)Nc2nc(SC)nn2C1c1cccs1 (configuration not stated) | -0.97 | 0.65
Cc1ccc(NS(=O)(=O)c2ccc(/C=C/c3onc(C)c3[N+](=O)[O-])cc2)cc1 | x | -0.02
COC(=O)c1sccc1NC(=O)c1cc2c(s1)-c1ccc(Cl)cc1SC2 | -0.83 | 1.2
CC1(C)CC(=O)C2=C(C1)c1c(ccc3ccccc13)NC2c1cccnc1 (configuration not stated) | -0.68 | 0.26
Cc1cc(=O)n2nc(N3CCCC3C(=O)NCc3ccco3)sc2n1 (configuration not stated) | 0.49 | 0.2
CCc1ccc(C(=O)c2cnc3cc4c(cc3c2N2CCCC2)OCCO4)cc1 | -0.66 | 0.6
Cc1cc(=O)[nH]c(Nc2ccc(Cl)cc2C)n1 | -2.3 | 1.2
S=c1[nH]nc(OCc2ccc(Cl)cc2Cl)n1-c1ccccc1 | 0.16 | x
Cc1cc2c(cc1C)CSC2 | -0.55 | x
COc1ccc(-c2cc(C)no2)cc1S(=O)(=O)Nc1ccc(Br)c(C)c1 | x | -1.4
CSc1nc2c(Cl)cccc2c2c1c(=O)[nH]n2C | -0.25 | x
CCCN1C(=O)C2(/C(=C(/O)c3ccc(C)cc3)C(=O)C(=O)N2CC2CCCO2)c2ccccc21 (configuration not stated) | -0.37 | 0.33
Cn1c(Cn2c(=O)sc3ccccc32)nnc1SCc1ccc(Br)cc1 | -0.6 | x
CNC(=O)CCC(=O)N1CC(C)Oc2ccc(Cl)cc21 (configuration not stated) | 0.48 | -0.79
Fc1ccccc1-c1ccc(CNCc2cccnc2)o1 | x | 1.3
Cc1cccc(CSc2nc3ccncc3n2Cc2cc(=O)n3ccccc3n2)c1 | -0.45 | -0.63
Cc1noc(C)c1-c1nc(CS(=O)(=O)c2ccc(Cl)cc2)no1 | -1.2 | x

3 compounds already listed, sorted by heavy-atom count, lowest first.
SMILES | CDC25B CDK2 inh | HIV TAR-Tat
Cc1noc(C)c1-c1nc(CS(=O)(=O)c2ccc(Cl)cc2)no1 | -1.2 | x
COc1ccc(-c2cc(C)no2)cc1S(=O)(=O)Nc1ccc(Br)c(C)c1 | x | -1.4
CCCN1C(=O)C2(/C(=C(/O)c3ccc(C)cc3)C(=O)C(=O)N2CC2CCCO2)c2ccccc21 (configuration not stated) | -0.37 | 0.33

The results go on:
SMILES | CDC25B CDK2 inh | HIV TAR-Tat
Cc1ccc2c(=O)cc(C(=O)Nc3sc4c(c3C(=O)NCc3ccco3)CCC4)oc2c1 | -0.46 | -6.9
Cc1ccc(C)c(CN2CCCN(Cc3ccccc3F)S2(=O)=O)c1 | x | 0.8
O=C(CS(=O)(=O)c1cccc2nsnc12)N1CCc2ccccc21 | x | 1.1
CC(C)c1nnc2sc(C3COc4ccccc4O3)nn12 (configuration not stated) | -1.3 | 0.28
COc1ccc(CCN2C(=O)CSC2c2ccc3cccc(O)c3n2)cc1OC (configuration not stated) | -1.8 | 1.3
O=C(NNC(=S)NC12CC3CC(CC(C3)C1)C2)c1cccnc1 | -2 | x
O=C(Cn1c(=O)[nH]c2ccsc2c1=O)Nc1ccccc1 | 0.91 | x
O=C(CCc1nnc2ccc(N3CCOCC3)nn12)N1CCc2ccccc2C1 | x | 0.85
CCCOC(=O)CNc1n[nH]c(=O)[nH]c1=O | -1.9 | -0.94
c1ccc(CNc2nn3nnnc3c3ccccc23)cc1 | -0.08 | -0.76
CC(C)CNC(=O)[C@H](C)NC(=O)c1ccc(Cl)cc1Cl | -0.83 | x
COc1ccc(-c2cnc3cc(-c4ccc(C)cc4)nn3c2N)cc1OC | -0.86 | -0.84

Exported in markdown: part of the list above
| molecule | CDC25B CDK2 inh | HIV TAR-Tat |
| --- | --- | --- |
| CCCOC(=O)CNc1n[nH]c(=O)[nH]c1=O | -1.9 | -0.94 |
| c1ccc(CNc2nn3nnnc3c3ccccc23)cc1 | -0.08 | -0.76 |
| CC(C)CNC(=O)[C@H](C)NC(=O)c1ccc(Cl)cc1Cl | -0.83 | x |
| COc1ccc(-c2cnc3cc(-c4ccc(C)cc4)nn3c2N)cc1OC | -0.86 | -0.84 |

Continued.
SMILES | CDC25B CDK2 inh | HIV TAR-Tat
O=C(COC(=O)c1ccccc1F)c1ccc(-n2nncc2-c2ccccc2)cc1 | x | 1.3
Cc1nn2c(=O)cc(COC(=O)c3cccc(Cl)c3)nc2s1 | x | -0.64
CCCCn1cc(S(=O)(=O)c2ccccc2)c(=O)c2cc(F)c(N3CCN(CC)CC3)cc21 | x | -0.05
COCCN1C(=O)C(=O)/C(=C(/O)c2ccccc2)C1c1ccccc1OC (configuration not stated) | -1.6 | 0.26
Cc1[nH]c2ccc(C(=O)NC3CC3)cc2c1C | x | 0.13
Cc1cc(C)c(NC2c3ncccc3C(=O)N2Cc2cccs2)c(C)c1 (configuration not stated) | -1.9 | -0.99
CC1CCN(c2c(NCC3CCC(C(=O)NC4CCCCCC4)CC3)c(=O)c2=O)CC1 (configuration not stated) | -2.5 | x
COc1ccccc1N1C(=O)C2ON(c3ccc(Cl)cc3)C(c3ccc(O)cc3)C2C1=O (configuration not stated) | 0.12 | x
COc1ccc(Cc2c(O)nc(N)[nH]c2=O)cc1 | -1.6 | 0.46
CCC(SC1=Nc2ccccc2C2=NC(C)C(=O)N12)C(=O)Nc1cc(F)ccc1F (configuration not stated) | x | -0.79
COc1c(Cl)cc(Cl)cc1-c1csc(NC(=O)C(Cl)(Cl)Cl)n1 | -1.4 | x
O=C(CN1C(=O)CCC1=O)Nc1nc(-c2ccccn2)cs1 | x | 2.2

Reformatted: entries from further up.
Second line of a record: CDC25B CDK2 inh	HIV TAR-Tat
CCn1c(CN2CCOCC2)nc2c1c(=O)n(C)c(=O)n2C
    -0.92	-0.34
Cc1nc(N2CCc3ccccc3C2)nc2oc(-c3ccccc3)nc12
    x	-0.49

Carrying on.
SMILES | CDC25B CDK2 inh | HIV TAR-Tat
CCOC(=O)c1c(S(=O)(=O)NCC(=O)NCc2ccco2)c(C)n(C)c1C | x | 1.3
COc1cc(NC(=S)N(C)CCC#N)c(OC)cc1Cl | 1.1 | x
Nc1cccnc1Nc1ccccc1 | 3.3 | -4.8
CN(Cc1ccco1)C(CNS(=O)(=O)c1ccccc1)c1ccccc1 (configuration not stated) | -0.39 | 1.4
Cc1nc(C)c(C(=O)NN)s1 | 1.3 | x
O=S(=O)(c1ccccc1F)N1CCN(c2nc3ccccc3n3cccc23)CC1 | 1.8 | -0.12
CCCCNC(=O)c1c(O)nc2ccccn2c1=O | -2.1 | 1.5
CCCOc1ccc(CC2CCC(=O)NC2=O)cc1 (configuration not stated) | 1.1 | x
CCSc1ncc(Cl)c(C(=O)Oc2ccc(C)c(C)c2)n1 | -2.1 | 0.61
CN1C(=O)c2[nH]nc(-c3ccc(F)cc3)c2C1c1ccc(O)cc1 (configuration not stated) | -0.22 | 0.4
COc1ccccc1OCCSc1nnc(-c2ccccc2C)o1 | -0.37 | 2.3
CC1=C(c2cccc(Cl)c2)S(=O)(=O)NC1=O | 0.56 | 0.08
Cc1c(C(=O)NCc2ccc3c(c2)OCO3)oc2ccc3c(c12)C=CC1(CCCC1)O3 | x | -0.1
CCC(=O)N1CCc2cc(S(=O)(=O)CCC(=O)NC3CCCC3)ccc21 | -1.9 | x
